# UCH37 DUB inh – human UCH37 deubiquitinating enzyme inhibition; Q9Y5K5; purified proteasome/UCH37, Ub-AMC cleavage fluorescence; inhibition, % (test concentration not listed); hit rate 0.33% among 330,000;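 active = mean of two replicates above 20%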;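 also: 0% = compound-free wells with enzyme and 100% = wells lacking proteasome; stock transfer was 100 nL into about 20 µL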
# Target sequence (Q9Y5K5 whole entry, looked up): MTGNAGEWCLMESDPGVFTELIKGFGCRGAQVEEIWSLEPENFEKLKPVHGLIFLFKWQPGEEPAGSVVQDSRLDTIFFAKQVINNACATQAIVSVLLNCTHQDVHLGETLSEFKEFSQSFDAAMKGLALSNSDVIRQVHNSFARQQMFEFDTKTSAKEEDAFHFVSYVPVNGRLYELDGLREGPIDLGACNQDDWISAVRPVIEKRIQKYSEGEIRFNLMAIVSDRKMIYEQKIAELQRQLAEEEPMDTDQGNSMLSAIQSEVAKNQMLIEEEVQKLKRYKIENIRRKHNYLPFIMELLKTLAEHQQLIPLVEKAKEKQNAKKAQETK
#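 Material: Human UCH37 enzyme supplied as purified proteasome complex | Schedule: 30 min compound-proteasome preincubation then 25 min substrate reaction, room temperature | Detection: AMC fluorescence from Ub-AMC cleavage, excitation 355 nm, emission 460 nm | Benchmarks: Wells without proteasome as full block, compound-free enzyme plus substrate as uninhibited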
# AF4-AF9 inh – MLL-AF4/AF9 protein interaction inhibition; inhibition, % at 10 µM; hit rate 0.47% among 350,000; AlphaScreen, biotin-AF4 peptide binding to FLAG-AF9; AID 651704; P42568;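 active = every replicate reaching a set inhibition limit, whatever the replicate mean, cut at about 25% in these data; inconclusive = mean inhibition reaches that limit but some replicates miss it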;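 also: 0% = plate neutral control median and 100% = total signal loss; the record names both 10 and 1 µM as test concentration; the first replicate is given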
# Target sequence (P42568 whole entry, looked up): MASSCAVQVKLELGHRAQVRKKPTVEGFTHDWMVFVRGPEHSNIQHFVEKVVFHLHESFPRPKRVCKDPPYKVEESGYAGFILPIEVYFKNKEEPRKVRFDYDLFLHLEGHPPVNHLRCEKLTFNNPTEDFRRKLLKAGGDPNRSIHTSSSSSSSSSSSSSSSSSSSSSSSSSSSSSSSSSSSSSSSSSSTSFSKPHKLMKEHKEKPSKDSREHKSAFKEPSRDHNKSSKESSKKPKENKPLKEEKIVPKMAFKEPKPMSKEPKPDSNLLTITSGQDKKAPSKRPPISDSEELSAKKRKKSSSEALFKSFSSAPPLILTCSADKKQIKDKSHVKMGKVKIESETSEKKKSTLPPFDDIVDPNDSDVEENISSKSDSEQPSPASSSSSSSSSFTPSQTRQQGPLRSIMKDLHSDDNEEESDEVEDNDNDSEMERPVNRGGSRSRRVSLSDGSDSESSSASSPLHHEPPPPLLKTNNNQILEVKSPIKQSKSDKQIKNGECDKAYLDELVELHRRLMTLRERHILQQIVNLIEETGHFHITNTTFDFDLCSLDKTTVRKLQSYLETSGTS
# HNF4A DNA FP – change in binding of human HNF4 alpha to DNA | P41235 | HNF4a-FITC DNA binding, fluorescence polarization, 1 h | activity change, % at 10 µM | hit rate 0.3% among 360,000 | AID 1224865; in the data active = activity change above about 30%, passing the limit was not always enough;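 also: controls were the assay level and a saturating level of protein; the project sought stronger binding though the title names inhibitors; some compounds called inactive have numbers as strong as hits; positive values seem to mean higher polarization but the record does not say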
# RanGTP-Impb inh – inhibitors of RanGTP-importin-beta interaction, primary screen, biochemical, FRET, CFP-Ran, YFP-importin-beta, homogeneous. inhibition, % (concentration not given with the values). hit rate 1.1% among 300,000. AID 2216. cell-free CFP-Ran/YFP-importin-beta FRET ratio;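 active = most replicates above 15%; inconclusive = exactly half above 15%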;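 also: 0% = DMSO wells and 100% = Ran loaded with GDP instead of GTP; wells of about 40 µL received 100 nL stock; the first replicate is given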
# FGF22 binding – binders of recombinant human FGF22 by thermal shift. calls only at 9.99 µM. SYPRO orange fluorescence; percent of sucrose octasulfate shift, DMSO zero. hit rate 1.5% among 340,000;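 active = melting point raised past a set limit in the mean and every replicate; inconclusive = no clear call; three in four hits are not shown here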
# Target sequence (Q9HCT0 whole entry, looked up): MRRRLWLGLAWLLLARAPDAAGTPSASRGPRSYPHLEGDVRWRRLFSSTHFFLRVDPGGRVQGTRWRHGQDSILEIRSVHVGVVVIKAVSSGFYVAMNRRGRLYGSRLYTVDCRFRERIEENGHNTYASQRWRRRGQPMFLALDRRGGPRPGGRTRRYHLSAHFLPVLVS
# Vif TR-FRET – HIV-1 Vif–A3G interaction blockers – biochemical, TR-FRET, GST-Vif 1-94, biotin-A3G peptide, dose response retest, primary screen (AID 1117319) | TR-FRET GST-Vif / biotin-A3G peptide binding; higher % means a stronger effect; test concentration not given here; strong numbers were not always called active | inhibition, %; hits with a dose series show IC50 in µM | hit rate 0.57% among 260,000;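 active = above the screen mean plus three standard deviations and confirmed in dose response; inconclusive = results disagree or hit not tested in dose response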;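 also: Vif residues 1-94 fused to GST binding biotinylated APOBEC3G peptide 110-148; 0% = full assay without inhibitor and 100% = GST in place of GST-Vif; retest series ran down from 100 µM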
# E coli growth – E. coli growth inhibition | Escherichia coli growth, OD600, 23 h; active compounds read low | OD600 absorbance (concentration not given with the values) | AID 1053175 | hit rate 0.21% among 330,000;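 active = OD600 absorbance below the run mean of sample wells minus 3.6 SD, in any replicate, cut at about 0.56 in these data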;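 also: stock transfer was 300 nL into about 60 µL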
# * hit, by the source's call; i = inactive; ? = inconclusive; . = not tested or not shown; & = joins results of further samples. Some of the compounds tested; rates above refer to the full screens.
Molecule	UCH37 DUB inh	AF4-AF9 inh	HNF4A DNA FP	RanGTP-Impb inh	FGF22 binding	Vif TR-FRET	E coli growth
CCOC(=O)C1CCN(C(=O)Nc2cccc(OC)c2)CC1	3.5	1.6	2.6	-1.6	i	5%	0.66
NC(Cc1ccc(C(F)(F)F)cc1)c1csc(Nc2nccc(C(F)(F)F)n2)n1 (stereo not given)	.	0.5	1.7	.	i	.	.
COC(=O)[C@H](Cc1ccc(O)cc1)NCCCn1cnc(C(=O)Nc2ccc(C)c(C)c2)n1	.	-0.1	3.2	.	i	-3%	.
Cc1cc(C(=O)O)ccc1-n1c(C)cc(/C=C(/C#N)C(=O)Nc2ccccc2)c1C	6.6	-11	0.2	7.3	i	19%	0.67
Cc1oc(-c2cccs2)nc1CN1CCN(Cc2ccc(F)c(F)c2)C(CCO)C1 (stereo not given)	1.4	15	-0.2	1.6	i	-5%	0.65
O=C(CSc1nnnn1Cc1ccccc1)Nc1ccc2c(c1)OCO2	2.9	.	-2.6	-4.5	.	0%	0.69
CCOc1ccc(OCc2cccc(C(=O)N3CCOCC3)c2)cc1	1.5	.	-0.3	3.4	.	18%	0.65
Cn1c(=O)[nH]c(=O)c2c1nc(NCc1ccco1)n2Cc1ccccc1Cl	1.9	4.8	4.3	0.5	i	-4%	0.73
CCCCNC(=O)C1(C)CCCCN1C(=O)c1cccc(OC(F)(F)F)c1 (stereo not given)	.	-2.0	0.7	.	i	.	.
O=C(NN=C1CCCCC1)c1cc(-c2ccccc2)n[nH]1	3.0	.	-0.8	1.6	.	0%	0.68
COCc1cc(=O)n2[nH]c(C)c(-c3ccccc3)c2n1	-95	1.7	1.4	1.2	i	5%	0.65
CC(=O)N1[C@H](Cc2ccccc2)C=C[C@]1(C)C(=O)NCc1ccccn1	-0.6	4.3	-1.7	9.9	i	?	.
O=C(Cc1ccccc1)Oc1coc(CSc2ncccn2)cc1=O	3.7	-2.1	9.1	4.0	i	-3%	0.69
CC1CN(C(=O)COC(=O)c2ccc(N(C)C)cc2)CC(C)O1 (stereo not given)	0.2	-0.6	2.5	-3.1	.	-7%	0.69
S=C(NCc1ccncc1)NC1CCCC1	-1.1	-3.1	1.1	0.1	i	.	0.7
Cc1ccc(NC(=O)/C=C/c2ccc3c(c2)OCO3)cc1S(=O)(=O)N1CCOCC1	-1.2	3.9	-0.6	0.0	i	-10%	0.7
O=C(NCC(c1cccs1)N1CCOCC1)c1ccccc1NS(=O)(=O)c1cc([N+](=O)[O-])ccc1Cl (stereo not given)	4.8	1.7	0.1	1.9	i	7%	0.7
CCCCN(C(=O)c1cccc(-n2cnnn2)c1)c1c(N)n(CCCC)c(=O)[nH]c1=O	.	-3.1	-0.2	.	i	-2%	.
CCOC(=O)c1c(NC(=O)CN2C(=O)N(C)C3(CCCCC3)C2=O)sc(C(=O)N(C)C)c1C	3.9	?	-3.7	.	i	.	0.67
O=S(=O)(c1cc(C(F)(F)F)ccc1Cl)N1CCCCCC1	-0.2	-0.8	-0.1	2.6	.	18%	0.71
CCOC(=O)c1ccc(NC(=S)N(CCCN2CCCC2)Cc2cccs2)cc1	-1.1	3.7	-4.1	7.7	i	1%	0.74
CCC(C(=O)NC1CCCC1)N(C(=O)Cn1nnc(-c2ccc(C)o2)n1)c1cccc(OC)c1 (stereo not given)	3.1	-0.1	2.0	-2.1	i	-3%	0.69
CCOc1ccccc1NC(=O)c1ccc2c(O)c(S(=O)(=O)c3ccccc3)c(=O)[nH]c2c1	.	-3.9	-4.3	.	i	-3%	.
O=C1Nc2ccccc2OC1CC(=O)N1CCCC1 (stereo not given)	4.2	-4.6	4.2	3.0	i	26%	0.72

# Four compounds out of the list, arranged by number of heavy atoms, smallest number first.
Molecule	UCH37 DUB inh	AF4-AF9 inh	HNF4A DNA FP	RanGTP-Impb inh	FGF22 binding	Vif TR-FRET	E coli growth
O=C1Nc2ccccc2OC1CC(=O)N1CCCC1 (stereo not given)	4.2	-4.6	4.2	3.0	i	26%	0.72
O=S(=O)(c1cc(C(F)(F)F)ccc1Cl)N1CCCCCC1	-0.2	-0.8	-0.1	2.6	.	18%	0.71
CCOC(=O)c1ccc(NC(=S)N(CCCN2CCCC2)Cc2cccs2)cc1	-1.1	3.7	-4.1	7.7	i	1%	0.74
O=C(NCC(c1cccs1)N1CCOCC1)c1ccccc1NS(=O)(=O)c1cc([N+](=O)[O-])ccc1Cl (stereo not given)	4.8	1.7	0.1	1.9	i	7%	0.7

# Going on with the list:
Molecule	UCH37 DUB inh	AF4-AF9 inh	HNF4A DNA FP	RanGTP-Impb inh	FGF22 binding	Vif TR-FRET	E coli growth
CCC(C)Cn1cnc2c(Sc3c([N+](=O)[O-])ncn3C)nc(N)nc21 (stereo not given)	8.1	-42	-2.5	.	i	6%	0.64
C/C(=N\NC(=S)NCc1ccccc1)c1ccc2ccccc2c1OC(F)F	.	0.5	1.9	2.9	i	-9%	.
CCOc1ccc(/C=N/n2c(-c3ccccc3)n[nH]c2=S)cc1	.	-1.1	1.6	-1.1	i	.	.
CC(=O)Nc1ccc(N/C=C(\C=O)c2nc3ccccc3o2)cc1	-28	-0.5	5.8	3.5	i	14%	0.69
CCOC(=O)c1sc(N=NC2=C(O)CCCC2=O)c(C(=O)OCC)c1C	2.2	3.6	-7.8	5.4	i	-7%	0.71
Cc1ccc(C)c(NS(=O)(=O)c2ccc3c(c2)Cc2cc(S(=O)(=O)Nc4cc(C)ccc4C)ccc2-3)c1	4.5	.	7.2	.	.	-11%	0.73
COc1ccc(NS(=O)(=O)c2cc(NC(=O)[C@@H](NC(=O)c3ccccc3)C(C)C)ccc2C)cc1	0.8	.	-2.4	3.8	.	10%	0.69
CCCCCCCCN1C(=O)[C@H](CC(=O)N2CCCC2)C[C@@]2(C(=O)OC)CCCCC=C12	.	1.0	0.8	.	i	.	.
CCCN(C(=O)c1cc(-c2ccco2)nc2ccccc12)c1c(N)n(Cc2ccccc2)c(=O)[nH]c1=O	-51	0.4	-9.0	0.6	i	24%	0.68
CCC(C)c1ccc(NC(=O)N2CCN(C(=O)C3CCCO3)CC2)cc1 (stereo not given)	0.9	-1.4	0.4	.	i	.	0.69
O=C(C1CCN(Cc2nc(-c3ccc(Cl)cc3)no2)CC1)N1CCOCC1	0.8	1.6	-1.7	2.1	i	?	0.73
CN(C)S(=O)(=O)c1ccc(C(=O)N2CCN(C(=O)C3CCCO3)CC2)cc1 (stereo not given)	4.0	-2.0	2.3	.	i	-7%	0.69
CCOC(=O)N1CCN(c2ccc(C(=O)c3ccccc3)cc2F)CC1	1.9	.	-2.7	-8.1	.	1%	0.69
Cc1ccc(CN2CCN(Cc3cccn3-c3ccc(Cl)cn3)CC2CCO)o1 (stereo not given)	1.4	.	0.0	2.3	.	-12%	0.72
N#CCCN1CCCN(CCC#N)CCN(CCC#N)CCCN(CCC#N)CC1	1.0	0.6	-4.5	?	i	1%	0.66
NC(=O)C1CCCN(C(=S)Nc2ccccc2)C1 (stereo not given)	4.8	-3.8	2.0	11	i	-4%	0.68
O=C(/C=C/c1c(Cl)cccc1Cl)N1CCOCC1	1.0	5.6	2.1	-1.0	i	.	0.63
COc1ccc(CNn2cnnc2)c(O)c1	-0.6	-1.5	1.4	5.6	i	.	0.7
COc1ccc(CN2C(=O)c3cccnc3C2Nc2cc(Cl)c(OC)cc2OC)cc1 (stereo not given)	5.0	.	1.6	2.2	.	-2%&8%	0.75
Cc1ccc([C@@H]2CC=C(C(=O)O)[C@H](c3cccc(Cl)c3)N2S(=O)(=O)c2ccccc2C)cc1	2.4	-3.4	2.4	.	i	0%	0.68
COc1cccc(/C=N/NC(=O)C(C)n2nnc3ccccc32)c1 (stereo not given)	.	.	-3.8	1.2	.	5%	.
Cc1noc(C)c1COC(=O)c1cc(=O)[nH]c2ccccc12	-47	.	2.7	.	.	3%	0.73
COc1cccc(C(NC(C)=O)c2nc(-c3cccs3)cs2)c1 (stereo not given)	.	2.8	1.4	.	i	.	.
O=c1oc2ccccc2n1CCCCCn1c(=O)oc2ccccc21	3.9	.	2.3	2.1	.	?	0.72
O=C(Nc1ccc(C(F)(F)F)cc1)C1CCN(S(=O)(=O)c2ccc(N3CCCC3=O)cc2)CC1	4.4	-2.3	-3.8	5.0	i	.	0.72
Cc1ccc2c(=O)n3c(nc2c1)C(C)NC(=O)c1cccnc1-3 (stereo not given)	.	-8.3	3.0	.	i	6%	.
CCOC(=O)N1CCC(N2CCN(Cc3ccc(F)c(F)c3)C(CCO)C2)CC1 (stereo not given)	0.2	-11	-0.8	-0.9	i	-3%	0.68
O=C(CN1C(=O)NC2(CCCc3ccccc32)C1=O)c1ccc(F)c(F)c1 (stereo not given)	-1.7	0.0	0.3	.	i	-6%	0.71
O=C1/C(=C\c2ccncc2)CCc2ccccc21	2.1	-1.3	-2.8	1.1	i	.	.
CC1=CC(=C(C#N)C#N)C=C(C)N1CCN1CCN(C(=O)Nc2cccc(Cl)c2)CC1	-38	-1.5	0.2	1.8	i	-8%	0.73
COc1ccc(CCNC(=O)CC2SC(=Nc3cc(C)cc(C)c3)NC2=O)cc1OC (stereo not given)	0.5	-0.1	-1.6	?	i	22%	0.72
Cc1ccccc1CC1(CO)CCCN(C(=O)CCCN2CCCCC2=O)C1 (stereo not given)	4.4	0.7	0.2	4.5	i	1%	0.69
Cc1cccc(Cn2c(C(=O)OC(C)C)cc3c2ccn3C)c1	-2.0	.	2.9	6.6	.	?	0.68
O=C(NCc1ccc(C(F)(F)F)cc1)C1CC(c2ccc(C(F)(F)F)cc2)=NO1 (stereo not given)	3.1	.	-1.0	-1.4	i	.	0.66
Nn1c(SCC(=O)N2CCOCC2)nnc1C1CC1	0.8	3.2	2.4	2.5	i	-1%	0.72
CC1CN(C(=O)C(Sc2ccccc2)c2ccccc2)CC(C)O1 (stereo not given)	0.5	.	-0.4	-2.7	.	17%	0.72
CC1CCC2C(=O)N(c3cc(Cl)ccc3OC(=O)c3ccco3)C(=O)C2C1 (stereo not given)	2.1	-5.7	2.9	1.7	i	2%	0.67
CC(C)COc1ccc(C(=S)N2CCCC2)cc1	-1.4	-0.6	-2.1	0.2	i	.	0.7
COc1cc(C(CCN2CCCC2)c2c(OC)cc(OC)c3c(-c4ccccc4)cc(=O)oc23)cc(OC)c1OC (stereo not given)	-0.3	22	-1.1	-2.1	i	.	0.67
CCC1(C)Cc2c(sc3nnn(CC(=O)Nc4cccc5ccccc45)c(=O)c23)CO1 (stereo not given)	2.9	.	4.2	2.8	.	5%	0.64
COc1cc2nc(COc3ccc(C#N)cc3)n(CC#N)c(=O)c2cc1OC	-5.3	.	-0.1	1.3	.	1%	0.75
CCOc1ccc2nc(COC(=O)c3cccc([N+](=O)[O-])c3)c(C(C)=O)[n+]([O-])c2c1	2.1	.	1.8	-3.0	i	-2%	0.72
Cc1cc(C)cc(NC(=O)CSc2nnc(Cc3cccn3C)n2-c2ccc(F)cc2)c1	4.8	5.0	7.9	6.1	.	6%&2%	0.76
O=C(Cc1ccccc1)c1ccc(Cl)cc1	4.5	-1.8	-0.1	-4.1	i	.	0.64
CC(C)(Oc1ccc(Cl)cc1)C(=O)O/N=C(\N)c1ccncc1	2.4	-20	4.9	0.9	i	.	0.61
O=C(Cn1nc(-c2ccccc2Cl)ccc1=O)Nc1ccc(Br)cc1	3.5	-20	1.1	-0.2	.	7%	0.69

# High-throughput results (PubChem BioAssay)
